H5N1 antiviral: antiviral screen in MDCK cells, H5N1 avian flu; cytopathic effect, luminescence, 72 h; hits give high values; no value below 0 was filed and about half of the inactive calls have no number; reference of the scale not given here; inhibition, % at 50 µM; 0.07% of 96,000 active; in the data active = inhibition above about 25%
* marks the source's active call; other numbers are inactive results; i = inactive. An excerpt (hit frequency here may not be typical).

Sample of the layout, 2 compounds:
item | canonical_smiles | H5N1 antiviral
1 | O=C(Nn1c(=O)[nH]c2ccccc2c1=O)c1ccco1 | 0.1
2 | CC(C)[C@H](NC(=O)Nc1ccc(S(N)(=O)=O)cc1)C(=O)O | i

All compounds of this part (from the top)
item | canonical_smiles | H5N1 antiviral
1 | O=C(Nn1c(=O)[nH]c2ccccc2c1=O)c1ccco1 | 0.1
2 | CC(C)[C@H](NC(=O)Nc1ccc(S(N)(=O)=O)cc1)C(=O)O | i
3 | O=C(O)c1ccc(N2CCCCC2)cc1 | 0.4
4 | Cc1c(C(=O)NCC2COc3ccccc3O2)oc2ccc(S(=O)(=O)N3CC(C)CC(C)C3)cc12 (configuration not stated) | 1.2
5 | CCn1c(Cc2ccc(OC)cc2)nnc1SCC(=O)N1CCN(c2ccccc2)CC1 | 1.4
6 | CC(C)(C)NC(=O)C(c1ccsc1)N(CCc1ccccc1)C(=O)Cn1nnc2ccccc21 (configuration not stated) | i
7 | Cc1ccc(Oc2cc(N3CCOCC3)nc(-c3ccccc3)n2)cc1 | 0.3
8 | Cc1nnc(SCC(=O)Nc2ccc(N3CCOCC3)cc2)o1 | i
9 | CCOc1ccc(Cl)cc1S(=O)(=O)n1nnc2ccccc21 | 0.2
10 | O=C(Nc1ccc(CN2CCOCC2)cc1)c1cc2ccccn2n1 | i
11 | COc1ccc(CNC(=O)c2cccnc2Sc2ccc(Cl)cc2)cc1 | 0.8
12 | COC(=O)CNC(=O)CN1c2cccc3cccc(c23)S1(=O)=O | i
13 | COC(=O)CSc1nnc(-c2sc3ccccc3c2Cl)o1 | 0.1
14 | CNc1nc(Oc2ccccc2C(=O)OC)nc(SC)n1 | 3.8
15 | C=CCn1c(N)c(C(=O)NCc2cccnc2)sc1=S | 0.3
16 | COCCCNC(=O)c1ccc(-n2nc(C(F)(F)F)cc2-c2cccs2)cc1 | i
17 | CCNC(=O)CN1C(=O)NC(CCc2ccccc2)C1=O (configuration not stated) | 0.1
18 | CCc1ccccc1NC(=O)CSC1=C(C#N)C(c2ccc3c(c2)OCO3)C2=C(CCCC2=O)N1 (configuration not stated) | i
19 | Cn1c(SCC(=O)NC2CC2)nnc1-c1cccc(NC(=O)c2ccccc2F)c1 | 4.7
20 | O=C(CSCc1c(F)cccc1Cl)NCc1ccco1 | 2.0
21 | Cc1cc(C)c2cc(C#N)c(N3CCCC3)nc2c1 | 1.2
22 | CCOC(=O)C1=C(C)N(C)C(=O)NC1c1c(C)nn(-c2ccc(C)cc2)c1Cl (configuration not stated) | 1.1
23 | COc1ccccc1C(=O)N1CCN(c2ccccn2)CC1 | 0.5
24 | CCOC(=O)c1ccc(NC(=O)c2ccc(CN3CCOCC3)cc2)cc1 | 0.1
25 | COCCCn1c(Cc2csc(Nc3ccc(F)cc3)n2)nnc1SCC(N)=O | i
26 | Cn1c(=N)n(CC(O)c2ccccc2)c2ccccc21 (configuration not stated) | i
27 | CCSc1nnc2n(N)c(=O)c3ccccc3n12 | 2.2
28 | O=S(=O)(CCOc1ccccc1)c1nc2ccccc2[nH]1 | i
29 | O=C(COC(=O)c1ccc2ccccc2n1)Nc1ncc(C(F)(F)F)cc1Cl | 0.7
30 | COc1ccc(N2C(=O)CC(N3CCN(c4ccccc4F)CC3)C2=O)cc1 (configuration not stated) | 0.6
31 | COc1ccc(/C=C2\CCCC3C2=NN(C(=O)COC(=O)CNC(=O)c2ccccc2)C3c2ccc(OC)cc2)cc1 (configuration not stated) | 0.5
32 | CCOC(=O)c1ccc(NC(=O)c2ccc(C)c(S(=O)(=O)N3CCOCC3)c2)cc1 | 2.0
33 | Cn1c(=O)c2c(nc(OCc3cccnc3)n2Cc2c(F)cccc2Cl)n(C)c1=O | 2.7
34 | CC1CCC(NCC(O)c2ccccc2)CC1 (configuration not stated) | i
35 | CC1CCCCN1CCCNC(=O)C1CCN(c2nc3ccccc3o2)CC1 (configuration not stated) | 0.5
36 | O=C(CSc1nc2ccccc2c(=O)n1Cc1ccco1)NCc1ccco1 | 1.9
37 | O=C(Nc1ccccc1Cl)c1cccc(NS(=O)(=O)c2ccccc2)c1 | i
38 | COc1ccc2[nH]c(=O)c(CN(CC3CCCO3)C(=O)Nc3ccccc3)cc2c1 (configuration not stated) | 4.3
39 | COc1cccc(C(c2sc3ncnn3c2O)N2CC(C)OC(C)C2)c1 (configuration not stated) | i
40 | CCn1c(=O)c2c3c(sc2n(C)c1=O)CCC3 | i
41 | CC(C)(C)c1cc(C(F)(F)F)c(C#N)c(=O)[nH]1 | 0.9
42 | COc1cc(C(=O)Nc2nccs2)cc(OC)c1OC | 0.3
43 | Cc1ccccc1Cn1cc(/C=N/n2cnnc2)c2ccccc21 | i
44 | CCOc1cc(-c2c(C#N)c(N)nc3c2CCCC3)ccc1O | i
45 | CCOC(=O)c1sc(NCC2CCCO2)nc1C (configuration not stated) | 0.4
46 | CC(=O)Cc1ccccc1OCC(=O)O | 1.3
47 | Cc1ccc(NC(=O)CCc2ccc(S(=O)(=O)N3CCOCC3)cc2)c(C)c1 | i
48 | O=C(CSc1ncnc2c1cnn2CCc1ccccc1)Nc1ccc(F)cc1 | i
49 | COC(=O)c1ccc(C(=S)N2CCOCC2)cc1 | i
50 | COc1ccccc1CNC(=O)c1nn(-c2ccc(C)cc2)c(=O)c2c1c1ccccc1n2C | 0.3
51 | COc1cccc(C(=O)Nc2nnc(-c3cccs3)s2)c1 | 0.2
52 | COc1ccccc1N1CCN(C(=O)CSc2nc(N)cc(=O)[nH]2)CC1 | 0.4
53 | CCC(NC(=O)NCCCn1ccnc1)(C(F)(F)F)C(F)(F)F | 1.2
54 | CCC(=O)c1ccc(OCC(O)CN2CCN(c3cccc(C(F)(F)F)c3)CC2)cc1 (configuration not stated) | 0.4
55 | CCOc1c2ccc(C(=O)NCc3ccc(OC(F)(F)F)cc3)cc2nn1CC | i
56 | O=C(CN1CCN(c2ccc(Cl)cc2)CC1)c1ccc2c(c1)OCO2 | i

(next part)
item | canonical_smiles | H5N1 antiviral
57 | COC(=O)C1(C)NC(c2cccs2)C2C(=O)N(c3ccccc3F)C(=O)C21 (configuration not stated) | i
58 | CCC1CCCCN1Cc1ccc(OC)c(C)c1 (configuration not stated) | 0.7
59 | CN(C)CCNC(=O)c1ccccc1-c1ccccc1 | i
60 | OC1(c2ccc(Br)cc2)CCNCC1 | 1.3
61 | CC1Cc2nc(SCC(=O)Nc3nccs3)n(C)c(=O)c2S1 (configuration not stated) | 4.5
62 | Cc1cccc(/N=C/c2c(O)cc(C)oc2=O)n1 | i
63 | Cc1oc2cc(OC(C)C(=O)O)ccc2c(=O)c1Oc1ccccc1 (configuration not stated) | i
64 | CN(C)/C=C(\C#N)C(=O)c1cccnc1Oc1cccc(F)c1 | i
65 | O=C(COC(=O)c1ccncc1)Nc1cc(Cl)ccc1Cl | 1.0
66 | CCSc1nnc(NC(=O)CSc2c(Cl)cccc2Cl)s1 | 0.5
67 | COc1ccc(-n2c(Cc3cccn3C)nnc2SCC(=O)Nc2ccc(F)cc2)cc1 | 0.2
68 | COC(=O)c1ccccc1NC(=O)CN1CCC(NC(=O)c2ccccc2C)CC1 | i
69 | CCN(CC)S(=O)(=O)c1ccc2[nH]cc(C(=O)NCCN3CCCCC3C)c(=O)c2c1 (configuration not stated) | 1.3
70 | CC(=O)NCC(=O)OCC(=O)c1ccc2ccccc2c1 | i
71 | N#Cc1ccc(COC(=O)c2ccc3c(=O)[nH]c(CN4CCOCC4)nc3c2)cc1 | i
72 | Cc1cc(=O)[nH]c(SCc2nc3ncccn3c2Br)n1 | 2.8
73 | N#Cc1c(-c2ccco2)cc(C2CC2)nc1SCC(=O)c1ccccc1 | 0.3
74 | CCOC(=O)N1CCN(C(=O)C2CCN(c3ncnc4c3sc3cccc(F)c34)CC2)CC1 | 1.7
75 | Cc1c(O)c(CN2CCCCC2)cc2c1oc(=O)c1ccccc12 | 0.3
76 | S=C(Nc1ccc(Cl)cc1Cl)NC1CCCCC1 | i
77 | C=CCn1c(SCC(=O)Nc2cc(NC(C)=O)ccc2OC)nnc1-c1cccnc1 | 1.0
78 | CCCCC[n+]1ccn(C2=C([O-])c3ccccc3C(=O)/C2=N\S(=O)(=O)c2ccccc2)c1 | i
79 | O=[N+]([O-])c1ccc(N(c2ccccc2)c2ccccc2)cc1 | 0.4
80 | Cc1ccc(-c2nnc(SCc3nc(N)nc(Nc4ccccc4C)n3)n2N)cc1 | i
81 | Cc1cc(C)cc(OCC(=O)Nc2ccc(N3CCN(C(=O)c4ccco4)CC3)cc2)c1 | i
82 | CC1CCCC(C)N1c1nnc(NC(=O)c2cc(-c3ccc(Br)cc3)on2)s1 (configuration not stated) | i
83 | CCOC(Cn1c(-c2ccc(OC)cc2)nc2ccccc21)OCC | 0.7
84 | CCOc1ccccc1NC(=O)C1CCN(S(=O)(=O)c2c(C)noc2C)CC1 | i
85 | O=C(COc1ccccc1)NCCc1nc2ccccc2[nH]1 | i
86 | CCC(=O)Nc1nc2ccc(NC(C)=O)cc2s1 | i
87 | CC(C)(C)C(=O)/C=C(\N)c1ccccn1 | i
88 | Cc1cnc(C)c(N2CCC(C(=O)NCc3cccs3)CC2)n1 | 0.7
89 | O=C(NCc1ccco1)c1ccc(=O)[nH]n1 | 0.3
90 | CC(C)(C)c1nc2sc3c(c2c(=O)o1)CCCC3 | 0.7
91 | CCC(C)(C)NC(=O)C(c1ccc(C)cc1)N(Cc1ccco1)C(=O)CCC(=O)Nc1nccs1 (configuration not stated) | 0.3
92 | CCOC(=O)N1CCN(CC(=O)Nc2c(C(=O)OC)[nH]c3ccccc23)CC1 | 0.6
93 | CCOc1ccc(/C(O)=C2/C(=O)C(=O)N(CCOCCO)C2c2ccccc2)cc1 (configuration not stated) | 1.6
94 | Cc1nn(C)c(Oc2ccccc2)c1CCNS(=O)(=O)c1ccccc1 | i
95 | COCCn1c(C)cc(C(=O)CSc2ccc(NC(C)=O)cc2)c1C | 1.3
96 | Cc1nc2ncnn2c(N2CCN(C(=O)Cc3cccs3)CC2)c1C | 3.0
97 | COc1ccc(N2C(=O)C3CCCN3C2c2cccs2)cc1 (configuration not stated) | i
98 | CCOC(=O)CN(C(=O)CSc1nnc(COc2ccc(OC)cc2)n1C)c1ccccc1 | 0.8
99 | CCN1CCCC1Cn1cnc2c([nH]c3cc(OC)ccc32)c1=O (configuration not stated) | 0.3
100 | CC1CN=C(c2cccn2Cc2ccc(F)cc2Cl)O1 (configuration not stated) | 0.7
101 | Cc1cccnc1NC(=O)c1ccc2nc(N)sc2c1 | 1.0
102 | Cc1nc2c(C(=O)N3CCOCC3)cnn2c(C)c1Cc1ccc(Cl)cc1 | i
103 | COC(=O)c1c(NC(=O)c2cccnc2)sc(C)c1C | i
104 | Cc1csc2nc(=O)c3ccccc3n12 | 0.6
105 | C=CCn1c(N2CCCC2)nc2c1c(=O)[nH]c(=O)n2C | 0.4
106 | O=C(C1CCN(S(=O)(=O)c2ccc(-n3cnnn3)cc2)CC1)N1CCN(c2ccccc2)CC1 | 1.0
107 | COc1ccc(C(=O)NNC(=S)NC(=O)c2cc(-c3ccccc3)nc3ccccc23)cc1 | i
108 | CC(C)CCN(C)C1CCN(S(=O)(=O)c2cccc(C(F)(F)F)c2)CC1 | i
109 | CCOc1cc(NC(=S)Nc2ccccc2)c(OCC)cc1NC(=O)c1ccc(OC)cc1 | i
110 | Cn1nc(C(F)(F)F)c2cc(NC(=O)OCc3ccc(C(C)(C)C)cc3)sc21 | 1.9
111 | CCOC(=O)C(C)Oc1ccsc1C(=O)OC (configuration not stated) | 7.4
112 | O=C(CNS(=O)(=O)c1ccc(C(=O)N2CCCCC2)cc1)N1CCCCC1 | 0.6

Carrying on.
item | canonical_smiles | H5N1 antiviral
113 | CCOC(=O)CSc1nnc(CNC(=O)c2ccc(OC)cc2)n1-c1ccc(OC)cc1 | i
114 | CCN(CC)S(=O)(=O)c1ccc2nnn(OCC(=O)Nc3cccc(C#N)c3)c2c1 | 1.0
115 | C=CCn1c(-c2ccc(OC)cc2)nc2nc3ccccc3nc21 | 0.7
116 | CC(=O)Nc1ccc(S(=O)(=O)Nc2ccc(S(=O)(=O)N3CCCCCC3)cc2)cc1 | i
117 | C=CCn1c(O)c(C(C)=Nc2ccc(N(CC)CC)cc2)c(=O)[nH]c1=O | i
118 | CCCn1c(O)c(/C=C2\C=NN=C2c2ccccc2)sc1=S | 0.9
119 | CCOC(=O)c1ccc(NC(=O)CCC(CC)C(=O)O)cc1 (configuration not stated) | 0.7
120 | COc1ccccc1-c1c(C)nn2c(N3CCCCCC3)cc(C)nc12 | 0.0
121 | O=c1oc(-c2ccccc2F)nc2c1cnn2-c1ccccc1 | i
122 | Cc1onc(-c2c(F)cccc2Cl)c1C(=O)N1CCc2ccccc21 | 3.4
123 | COc1cc(/C=C2/S/C(=N/S(=O)(=O)c3ccccc3)NC2=O)c([N+](=O)[O-])cc1OC | 1.9
124 | COc1ccc(C(O)c2coc3ccc(O)c(CN(C)C)c23)cc1 (configuration not stated) | i
125 | Cc1ccc(OCCNC(=O)c2cc(-n3cnnc3)ccc2Cl)cc1C | 0.8
126 | CCOc1ncccc1C(=O)OCC(=O)c1cccs1 | 0.5
127 | CCc1nc2ccccc2n(CC)c1=O | 0.6
128 | CCc1ccc(NC(=O)Cn2c(=O)oc3cc(S(=O)(=O)N4CCOCC4)ccc32)cc1 | 0.5

Compounds above with a tert-butyl group:
item | canonical_smiles | H5N1 antiviral
6 | CC(C)(C)NC(=O)C(c1ccsc1)N(CCc1ccccc1)C(=O)Cn1nnc2ccccc21 (configuration not stated) | i
41 | CC(C)(C)c1cc(C(F)(F)F)c(C#N)c(=O)[nH]1 | 0.9
87 | CC(C)(C)C(=O)/C=C(\N)c1ccccn1 | i
90 | CC(C)(C)c1nc2sc3c(c2c(=O)o1)CCCC3 | 0.7
110 | Cn1nc(C(F)(F)F)c2cc(NC(=O)OCc3ccc(C(C)(C)C)cc3)sc21 | 1.9

Other compounds.
item | canonical_smiles | H5N1 antiviral
129 | N#CC1=C(N)c2ccccc2CC12CCCCC2 | i
130 | COc1ccc(-c2nc(CS(=O)CC(=O)NCc3ccc4c(c3)OCO4)c(C)o2)cc1 (configuration not stated) | 0.9
131 | Cc1ccc(S(=O)(=O)CC(=O)Nc2nc(-c3ccccc3)cs2)cc1 | i
132 | COc1ccc(NC(=O)c2ccc(COc3ccccc3Br)o2)cc1OC | i
133 | C=CCn1c(SCc2nc3ccccc3c(=O)[nH]2)nnc1-c1cc2cc(Cl)ccc2o1 | 0.1
134 | O=C(CNC(=O)c1ccccc1)NCC1COc2ccccc2O1 (configuration not stated) | i
